YB-1 expression = YB-1 expression inhibition; U2OS, qRT-PCR YB-1 vs CDIP delta delta Cp, 16 h; hits give high values; zero = DMSO, each unit about twofold; delta delta Cp (YB-1 minus CDIP) (concentration not given with the values); 30,000 tested, 0.37% active;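 active = delta delta Cp rounded down to an integer at or above 3, about 3 SD of DMSO wells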;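 also: higher means less YB-1 transcript or more CDIP transcript relative to DMSO; stock transfer was 100 nL into about 100 µL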
* hit, by the source's call.

SMILES	YB-1 expression
C[C@@H]1CN([C@@H](C)CO)C(=O)CCCn2cc(nn2)CO[C@H]1CN(C)CC1CCCCC1	-0.0507
COC(=O)c1ccc([C@@H]2C=C(C(=O)N3CCN(Cc4ccc5c(c4)OCO5)CC3)O[C@H](OCc3ccc(CO)cc3)C2)cc1	0.663
Cc1cccc(CN(C)C[C@@H]2Oc3ncc(-c4ccc(F)cc4)cc3C(=O)N([C@H](C)CO)C[C@@H]2C)c1	0.101
Cc1cccc(CN(C)C[C@H]2OCc3cnnn3CCCC(=O)N([C@H](C)CO)C[C@@H]2C)c1	-0.35
C/C=C(C)\C=N\NC(=O)CCCCCCC(=O)Nc1ccccc1O	-0.16
O=C(NO)c1cccc(C(=O)N/N=C/c2cccc(Br)c2)c1	0.231
COc1ccc(C#Cc2cnc3c(c2)C(=O)N([C@H](C)CO)C[C@H](C)[C@H](CN(C)Cc2cccc(C(F)(F)F)c2)O3)cc1OC	-0.17
COCCOC(=O)N1C(=O)[C@@]2(c3ccccc31)[C@H](c1ccc(OCCO)cc1)N1[C@H](c3ccccc3)[C@H](c3ccccc3)OC(=O)[C@H]1[C@@H]2C(=O)Nc1nc2ccccc2s1	-0.445
COC(=O)CCCCCCC(=O)N/N=C/c1ccccc1O	-0.343
COC(=O)CCCCCCC(=O)N/N=C/c1cccc(O)c1O	0.41
Cc1cccc(CN(C)C[C@@H]2Oc3ncc(-c4ccccc4)cc3C(=O)N([C@H](C)CO)C[C@@H]2C)c1	-0.189
COc1ccccc1NC(=O)N(C)C[C@H]1OCc2cn(nn2)CCCC(=O)N([C@H](C)CO)C[C@H]1C	-0.204
C[C@@H]1CN([C@@H](C)CO)C(=O)CCCn2nncc2CO[C@@H]1CN(C)C(=O)Nc1cccc(F)c1	-0.122
C[C@H](CO)N1C[C@H](C)[C@H](CN(C)S(=O)(=O)c2cccs2)Oc2ncc(-c3ccccc3)cc2C1=O	-0.0846
C[C@@H]1CN([C@@H](C)CO)C(=O)CCCn2cc(nn2)CO[C@H]1CN(C)Cc1ccncc1	-0.218
COc1cccc(-c2cnc3c(c2)C(=O)N([C@H](C)CO)C[C@H](C)[C@H](CN(C)S(=O)(=O)c2ccc(C)cc2)O3)c1	-0.29
COCCOC(=O)N1C(=O)[C@@]2(c3ccccc31)[C@H](c1ccc(O)cc1)N1[C@H](c3ccccc3)[C@H](c3ccccc3)OC(=O)[C@H]1[C@@H]2C(=O)N1CCN(c2ncccn2)CC1	-0.0514
CN(C)C(=O)[C@@]1(CCS(=O)(=O)c2ccccc2)N=C(c2ccc(OCCCO)cc2)O[C@H]1c1ccccc1	0.0629
Cc1noc(C)c1NC(=O)N(C)C[C@@H]1OCc2cnnn2CCCC(=O)N([C@@H](C)CO)C[C@@H]1C	0.0573
C=CCN1C(=O)[C@@]2(O[C@@H](CCn3cc([C@H](O)c4ccccc4)nn3)[C@H]([Si](C)(C)c3ccc(OC)cc3)[C@H]2C)c2cc(N3CCOC3=O)ccc21	-0.0984
COc1ccccc1CN(C)C[C@@H]1OCc2cnnn2CCCC(=O)N([C@@H](C)CO)C[C@H]1C	0.0812
CC1(C)[C@H]2CC=C(/C=N\NC(=O)c3ccccn3)[C@@H]1C2	0.119
COC(=O)CCCCCCC(=O)N/N=C/c1ccccc1Br	-0.333
C[C@H](O)[C@H](O)[C@@H](O)[C@@H](O)/C=N/NC(=O)CCCCCCC(=O)Nc1ccccc1O	0.0468
C[C@H]1CN([C@@H](C)CO)C(=O)CCCn2nncc2CO[C@@H]1CN(C)S(=O)(=O)c1ccc(C#N)cc1	0.075
C[C@H](CO)N1C[C@H](C)[C@H](CN(C)S(=O)(=O)c2cccs2)Oc2ncc(C#Cc3ccc(C(F)(F)F)cc3)cc2C1=O	5.97*
C[C@H](CO)N1C[C@H](C)[C@@H](CN(C)S(=O)(=O)c2ccc(Oc3ccccc3)cc2)OCc2cnnn2CCCC1=O	-0.246
O=C(CCCCCCC(=O)Nc1ccccc1O)N/N=C/c1ccc(C(F)(F)F)cc1	-0.34
COc1ccc([Si](C)(C)[C@H]2[C@H](CCn3cc(CCO)nn3)O[C@@]3(C(=O)N(c4ccccc4)c4ccccc43)[C@@H]2C)cc1	-0.0142
[N-]=[N+]=NCc1ccccc1C[C@]1(C(N)=O)N=C(c2ccc(OCCCO)cc2)O[C@H]1c1ccccc1	0.266

A stretch from the list above, for reference:
SMILES	YB-1 expression
O=C(CCCCCCC(=O)Nc1ccccc1O)N/N=C/c1ccc(C(F)(F)F)cc1	-0.34
COc1ccc([Si](C)(C)[C@H]2[C@H](CCn3cc(CCO)nn3)O[C@@]3(C(=O)N(c4ccccc4)c4ccccc43)[C@@H]2C)cc1	-0.0142

Next section
SMILES	YB-1 expression
C[C@@H]1CN([C@@H](C)CO)C(=O)c2cc(NC(=O)CCCCCC(=O)Nc3ccccc3N)ccc2O[C@H]1CN(C)CC1CCCCC1	0.157
C=CCNC(=O)[C@H]1[C@@H]2C(=O)O[C@@H](c3ccccc3)[C@@H](c3ccccc3)N2[C@@H](c2ccc(OCCO)cc2)[C@]12C(=O)N(C(=O)OCCOC)c1ccc(C#CCC(C(=O)OC)C(=O)OC)cc12	0.338
CC(C)(C)OC(=O)NC1(/C=N/NC(=O)CCCCC(=O)NO)CCCC1	-0.111
C[C@@H]1CN([C@H](C)CO)C(=O)CCCn2cc(nn2)CO[C@H]1CN(C)C(=O)Nc1ccccc1F	-0.0059
NCCCCCNC(=O)[C@H]1C[C@H]2C(=O)N3CCC[C@H]3C(=O)N2[C@H]1c1cccc(OCCO)c1	0.39
C[C@@H]1CN([C@H](C)CO)C(=O)CCCn2nncc2CO[C@@H]1CN(C)C(=O)c1ccc(N2CCN(C)CC2)cc1	0.0377
O=C(C1=C[C@@H](c2ccccc2)C[C@@H](OCc2ccc(CO)cc2)O1)N1CCN(Cc2ccc3c(c2)OCO3)CC1	0.0837
COc1ccc([Si](C)(C)[C@@H]2[C@@H](CC(=O)N3CCC[C@H]3CO)O[C@]3(C(=O)N(Cc4ccc(I)cc4)c4ccccc43)[C@H]2C)cc1	0.171
C[C@@H]1CN([C@H](C)CO)C(=O)CCCn2nncc2CO[C@@H]1CN(C)C	0.561
CC(C)(C)OC(=O)Nc1cccc(/C=N/NC(=O)c2ccccn2)c1	-0.0895
CCOc1cc(/C=N/NC(=O)CCCCCCC(=O)Nc2ccccc2O)ccc1O	-0.11
C[C@H](CO)N1C[C@H](C)[C@H](CN(C)C(=O)Nc2ccc(-c3cccs3)cc2)OCc2cn(nn2)CCCC1=O	-0.406
O=C(N/N=C/C(Br)=C/c1ccccc1)c1ccccc1O	0.102
C[C@@H]1CN([C@@H](C)CO)C(=O)CCCn2nncc2CO[C@H]1CN(C)S(=O)(=O)c1ccc(F)cc1	-0.124
C=CCNC(=O)[C@H]1[C@@H]2C(=O)O[C@@H](c3ccccc3)[C@@H](c3ccccc3)N2[C@@H](c2ccccc2OCCO)[C@]12C(=O)Nc1ccc(C#Cc3ccc(OC)cc3)cc12	0.0195

3 compounds out of the list, sorted by number of heavy atoms, rising.
SMILES	YB-1 expression
O=C(N/N=C/C(Br)=C/c1ccccc1)c1ccccc1O	0.102
CCOc1cc(/C=N/NC(=O)CCCCCCC(=O)Nc2ccccc2O)ccc1O	-0.11
O=C(C1=C[C@@H](c2ccccc2)C[C@@H](OCc2ccc(CO)cc2)O1)N1CCN(Cc2ccc3c(c2)OCO3)CC1	0.0837

The results go on:
SMILES	YB-1 expression
Cc1noc(C)c1NC(=O)N(C)C[C@@H]1Oc2ncc(Br)cc2C(=O)N([C@H](C)CO)C[C@@H]1C	0.233
CC(C)(C)OC(=O)N1CCC[C@H]1/C=N/NC(=O)c1ccccc1O	-0.422
C[C@H](CO)N1C[C@H](C)[C@H](CN(C)Cc2ccccc2C(=O)O)OCc2cn(nn2)CCCC1=O	-0.688
COC(=O)N(C)C[C@@H]1OCc2cnnn2CCCC(=O)N([C@@H](C)CO)C[C@@H]1C	-0.483
C[C@@H]1CN([C@H](C)CO)C(=O)CCCn2nncc2CO[C@H]1CN(C)C(=O)Nc1cccc(C(F)(F)F)c1	-0.0695
O=C(O)CCCCCC(=O)N/N=C/c1ccc(Br)s1	-0.209
C[C@@H]1CN([C@@H](C)CO)C(=O)CCCn2nncc2CO[C@H]1CN(C)C(=O)Nc1cccc2ccccc12	0.0137
O=C(N1CCCCC1)[C@@]1(Cc2ccccc2)COC(c2ccc(OCCCO)cc2)=N1	-0.141
C[C@H](CO)N1C[C@H](C)[C@H](CN(C)Cc2ccc3cccnc3c2)OCc2cnnn2CCCC1=O	0.177
C=CCN1C(=O)[C@@]2(O[C@@H](CCn3cc([C@H](O)c4ccccc4)nn3)[C@H]([Si](C)(C)c3ccc(OC)cc3)[C@H]2C)c2ccccc21	-0.58
C=CCN1CCc2cc(OC)c(OC)cc2C1C#Cc1ccccc1 (stereo not drawn)	0.264
C[C@H](CO)N1C[C@H](C)[C@@H](CN(C)C(=O)CCCN(C)C)OCc2cnnn2CCCC1=O	-0.144
COCCOC(=O)N1C(=O)[C@@]2(c3cc(C#CCCO)ccc31)[C@H](C(=O)N1CCc3cc(OC)c(OC)cc3C1)[C@H]1C(=O)O[C@H](c3ccccc3)[C@H](c3ccccc3)N1[C@@H]2c1ccccc1OCCO	-0.0594
CC(C)=CCC[C@@H](C)C/C=N/NC(=O)CCCCC(=O)NO	-0.363
O=C(CCCCCCC(=O)Nc1ccccc1O)NN=C1CCCC1	-0.049
C[C@H]1CN([C@@H](C)CO)C(=O)CCCn2nncc2CO[C@@H]1CN(C)S(=O)(=O)c1cccs1	0.237
COC(=O)CCCCCCC(=O)NN=C1CCCCCC1	-0.354
C[C@@H]1CN([C@@H](C)CO)C(=O)CCCn2cc(nn2)CO[C@@H]1CN(C)C(=O)Nc1ccccc1F	-0.146
C[C@@H]1CN([C@@H](C)CO)C(=O)CCCn2nncc2CO[C@@H]1CN(C)S(=O)(=O)c1ccc(-c2ccccc2)cc1	0.115
O=S(=O)(N[C@@H]1CCN(Cc2ccc(OCCO)cc2)C1)c1cccc2cccnc12	0.174
CC(C)CNC(=O)[C@@]1(c2ccc([N+](=O)[O-])cc2)CC(=O)N(CC23CC4CC(CC(C4)C2)C3)[C@@H]1c1ccc(CO)cc1	-0.0497
O=C(N1CCCCC1)[C@@]1(CCS(=O)(=O)c2ccccc2)N=C(c2ccc(OCCCO)cc2)O[C@H]1c1ccccc1	0.3
C[C@H](CO)N1C[C@H](C)[C@H](CN(C)S(=O)(=O)c2cn(C)cn2)Oc2ncc(-c3cccc(F)c3)cc2C1=O	-0.108
C[C@@H]1CN([C@H](C)CO)C(=O)CCCn2nncc2CO[C@H]1CN(C)C(=O)CCCN(C)C	-0.386
C[C@H](CO)N1C[C@H](C)[C@H](CN(C)C(=O)Nc2ccccc2F)OCc2cnnn2CCCC1=O	-0.397
C=CCOC(=O)[C@@H]1[C@H]2C(=O)O[C@H](c3ccccc3)[C@H](c3ccccc3)N2[C@H](c2ccc(OCCOC(=O)[C@@H]3C[C@@H]4C(=O)N[C@@H](CC(C)C)C(=O)N4[C@@H]3c3ccc(O)cc3)cc2)[C@@]12C(=O)Nc1ccc(I)cc12	0.0549
C[C@H](CO)N1C[C@H](C)[C@@H](CN(C)S(=O)(=O)c2cn(C)cn2)OCc2cnnn2CCCC1=O	0.2
COc1cc(O)cc(OC)c1/C=N/NC(=O)CCCCCC(=O)Nc1ccccc1O	0.00287
O=C(NO)c1cccc(C(=O)N/N=C/c2cccs2)c1	0.00589
C=CC[C@@]12N=C(c3ccc(OCCCO)cc3)O[C@@H]1c1ccccc1N(CCS(=O)(=O)c1ccccc1)C2=O	0.183
COc1ccc(NC(=O)N(C)C[C@@H]2Oc3ncc(-c4cccc(OC)c4)cc3C(=O)N([C@H](C)CO)C[C@@H]2C)cc1	-0.368
O=C1N(Cc2ccccc2)Cc2ccccc2C[C@@]12N=C(c1ccc(OCCCO)cc1)O[C@H]2c1ccccc1	0.224
C[C@H]1CN([C@@H](C)CO)C(=O)CCCn2cc(nn2)CO[C@@H]1CN(C)C(=O)Cc1ccccc1	-0.405
C[C@H]1CN([C@@H](C)CO)C(=O)CCCn2cc(nn2)CO[C@H]1CN(C)C(=O)NC1CCCC1	0.219
O=C(N/N=C/c1ccc(I)cc1)c1ccccn1	-0.442
C[C@H](CO)N1C[C@H](C)[C@H](CN(C)S(=O)(=O)c2ccc(Oc3ccccc3)nc2)OCc2cnnn2CCCC1=O	-0.175
C#CCOc1ccc(/C=N/NC(=O)c2ccccn2)cc1	-0.356
CO[C@H]1O[C@H](CO)[C@@H](OC(=O)Nc2ccccc2-c2ccccc2)[C@H](OC(=O)Nc2ccccc2)[C@H]1OC(=O)Nc1ccccc1	-0.607
C[C@@H]1CN([C@H](C)CO)C(=O)CCCn2cc(nn2)CO[C@@H]1CN(C)S(=O)(=O)c1cccs1	-0.342
COc1ccc([Si](C)(C)[C@H]2[C@H](CCO)O[C@@]3(C(=O)N(Cc4ccc(N5CCOC5=O)cc4)c4ccccc43)[C@@H]2C)cc1	-0.482
COc1ccccc1CN(C)C[C@H]1OCc2cn(nn2)CCCC(=O)N([C@H](C)CO)C[C@@H]1C	0.196
COc1cc2c(cc1OC)CN(C(=O)[C@@H]1[C@H]3C(=O)O[C@H](c4ccccc4)[C@H](c4ccccc4)N3[C@H](c3ccc(O)cc3)[C@@]13C(=O)Nc1ccc(C#CC4(O)CCCCCC4)cc13)CC2	0.00512
C[C@H]1CN([C@@H](C)CO)C(=O)CCCn2nncc2CO[C@@H]1CN(C)S(=O)(=O)c1cccc(C#N)c1	0.147
COc1ccc(NC(=O)N(C)C[C@H]2OCc3cnnn3CCCC(=O)N([C@@H](C)CO)C[C@@H]2C)cc1	-0.164
C[C@@H]1CN([C@@H](C)CO)C(=O)CCCn2cc(nn2)CO[C@H]1CN(C)S(=O)(=O)c1ccc(C#N)cc1	-0.242
O=C(NO)c1cccc(C(=O)N/N=C/c2cc(Br)ccc2O)c1	-0.277

3 of the compounds above, as labelled records.
> C[C@@H]1CN([C@@H](C)CO)C(=O)CCCn2cc(nn2)CO[C@H]1CN(C)S(=O)(=O)c1ccc(C#N)cc1
  YB-1 expression: -0.242

> CO[C@H]1O[C@H](CO)[C@@H](OC(=O)Nc2ccccc2-c2ccccc2)[C@H](OC(=O)Nc2ccccc2)[C@H]1OC(=O)Nc1ccccc1
  YB-1 expression: -0.607

> COc1ccc([Si](C)(C)[C@H]2[C@H](CCO)O[C@@]3(C(=O)N(Cc4ccc(N5CCOC5=O)cc4)c4ccccc43)[C@@H]2C)cc1
  YB-1 expression: -0.482

Source: PubChem BioAssay

Not all compounds are listed, so the mix of outcomes need not match the whole.
